Mtb betalactam: beta-lactam sensitization of Mtb H37Rv | M. tuberculosis H37Rv growth with meropenem, percent inhibition; hits of this screen are not shown here | inhibition, % at 25 µM | actives 0.27% (n = 330,000);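 active = about 74% or more and at least 40 points above the plate without the antibiotic, then above 30% in a dose series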;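 note: growth measured after seven days incubation then overnight dye step; 0% = bacteria only wells and 100% = bacteria with antibiotic; twin plates without the antibiotic show which effects depend on it; some results filed as inactive read as strong as hits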
YopH PTP inh: YopH (Yersinia) phosphatase inhibition; fluorescence Ex485/Em525; inhibition, %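 (about 10 µM by stock and volumes)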; actives 0.16% (n = 140,000); AID 898;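 active = inhibition of 50% or more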;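 note: controls were vehicle for no effect and minimum signal wells for full effect; inactives centre near -20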
RecA intein inh: inhibitors of M. tuberculosis RecA intein splicing; P9WHJ3; cell-free RecA intein splicing, fluorescence; inhibition, %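 (about 9 µM by stock and volumes)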; actives 0.75% (n = 290,000); AID 2221; in the data active = inhibition above about 30%;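 note: 0% = vehicle wells and 100% = reference inhibitor control wells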
Target sequence (P9WHJ3 whole entry, looked up): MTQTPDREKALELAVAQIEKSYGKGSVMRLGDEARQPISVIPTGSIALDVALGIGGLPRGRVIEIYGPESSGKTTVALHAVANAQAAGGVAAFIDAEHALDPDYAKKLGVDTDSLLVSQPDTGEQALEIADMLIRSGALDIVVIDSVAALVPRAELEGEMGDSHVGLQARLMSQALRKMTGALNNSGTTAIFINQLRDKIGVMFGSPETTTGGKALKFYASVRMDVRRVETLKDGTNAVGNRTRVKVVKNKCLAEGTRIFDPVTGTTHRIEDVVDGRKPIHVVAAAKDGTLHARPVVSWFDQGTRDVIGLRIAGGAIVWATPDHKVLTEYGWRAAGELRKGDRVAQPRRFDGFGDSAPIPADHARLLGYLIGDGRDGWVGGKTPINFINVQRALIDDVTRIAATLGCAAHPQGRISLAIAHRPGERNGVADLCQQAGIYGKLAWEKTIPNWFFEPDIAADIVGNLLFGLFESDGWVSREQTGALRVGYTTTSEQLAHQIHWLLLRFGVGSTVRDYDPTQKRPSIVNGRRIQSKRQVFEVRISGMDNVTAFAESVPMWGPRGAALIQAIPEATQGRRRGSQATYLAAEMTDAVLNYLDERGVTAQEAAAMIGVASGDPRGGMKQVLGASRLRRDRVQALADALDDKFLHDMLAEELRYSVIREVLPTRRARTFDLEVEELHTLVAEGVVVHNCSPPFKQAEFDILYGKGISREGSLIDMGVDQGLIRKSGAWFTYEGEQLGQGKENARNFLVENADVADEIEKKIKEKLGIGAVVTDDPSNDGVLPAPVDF
Mtb H37Rv: M. tuberculosis H37Rv growth inhibitors, H37Rv strain (AID 1626); M. tuberculosis H37Rv growth inhibition; higher % means a stronger effect; one-dose inhibition, % at 10 µM; IC50 in µM for titrated hits; actives 0.95% (n = 220,000);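 active = confirmed in a dose series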;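 note: bacteria incubated seven days before Alamar blue readout; 0% = bacteria only wells and 100% = bacteria with antibiotic wells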
Arbovirus inh: blocks arbovirus infection; arbovirus infection cell-based antiviral screen; inhibition, % at 10 µM; actives 0.37% (n = 200,000);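 active = inhibition from about 30%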;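 note: bluetongue infection of BSR cells; cell survival read as ATP light after 72 h; 0% = infected wells without compound and 100% = uninfected wells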
Arbovirus inh repeat: recorded beside Arbovirus inh, whose call it bears; inhibition, %; measured here: 10K subset replicate screen; many hits read low in the repeat;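 first of two repeat runs on a subset; 0% = infected and 100% = uninfected wells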
An asterisk follows results filed as active.

Results for O=C(/C=C/c1ccccc1)NCCc1ccc2c(c1)OCCO2 ?
Mtb betalactam: 1; YopH PTP inh: -34; RecA intein inh: 3.1; Mtb H37Rv: 14%; Arbovirus inh: -2

Results for COc1ccc(Oc2c(C(F)(F)F)oc3cc(OCC(=O)O)ccc3c2=O)cc1 ?
Mtb betalactam: -4; RecA intein inh: -1.4

What do the screens show for `Cc1cc(C2=NNC(=NCCc3ccccc3)SC2)c(C)n1CC1CCCO1` (stereo not given)?
Mtb betalactam: 3; RecA intein inh: 13; Mtb H37Rv: -14%; Arbovirus inh: 21

Results for CCCCSc1nn[nH]n1 ?
Mtb betalactam: -1; YopH PTP inh: -7; RecA intein inh: -0.8; Mtb H37Rv: -9%; Arbovirus inh: 9

What do the screens show for `N#CC1=C2N=C(N)c3ccccc3N2C2=C(C(=O)CCC2)C1c1cccc(Cl)c1` (stereo not given)?
Mtb betalactam: 4; YopH PTP inh: -26; RecA intein inh: 6.7; Arbovirus inh: -9

How did Cc1cc(-c2ccc(N3CCOCC3)cc2)nc2ccccc12 do in these assays?
Mtb betalactam: 34; YopH PTP inh: -9; RecA intein inh: -2.2; Mtb H37Rv: 15%; Arbovirus inh: -5

How did O=S1(=O)OCCC(c2ccccc2)N1Cc1ccccc1 (stereo not given) do in these assays?
Mtb betalactam: 4; RecA intein inh: 1.0

Results for Cc1ccc(CNc2ccc3c(c2)ncn3C(C)(C)C)cc1 ?
Mtb betalactam: 99; RecA intein inh: 2.9; Mtb H37Rv: 47%; Arbovirus inh: 12

What do the screens show for `Cc1ccsc1C1NC(=O)c2ccccc2N1` (stereo not given)?
Mtb betalactam: -11; YopH PTP inh: -12; RecA intein inh: -0.9; Mtb H37Rv: -5%; Arbovirus inh: -3

What do the screens show for `CC(=O)C1=C(O)C(=O)N(CCN2CCOCC2)C1c1ccc(N(C)C)cc1` (stereo not given)?
Mtb betalactam: -9; YopH PTP inh: -18; RecA intein inh: -2.9; Mtb H37Rv: 0%

How did O=C(O)C1CCN(C(=O)c2ccccc2C(=O)N2CCC(C(=O)O)CC2)CC1 do in these assays?
Mtb betalactam: -3; YopH PTP inh: -52; RecA intein inh: -4.3; Mtb H37Rv: -9%; Arbovirus inh: 0

What do the screens show for `CN(C)C(=O)c1ccc(NC(=O)c2cc(-c3ccco3)nc3ccccc23)cc1`?
Mtb betalactam: 3; RecA intein inh: -1.7

How did CC(=O)NC12CC3CC(C1)CC(C(=O)OCC(=O)NC(=O)c1cccn1C)(C3)C2 do in these assays?
Mtb betalactam: -5; YopH PTP inh: -20; RecA intein inh: 0.8; Mtb H37Rv: 5%; Arbovirus inh: 7

Results for COc1ccc(OC)c(CN2CCN(S(=O)(=O)c3ccccc3)CC2)c1 ?
Mtb betalactam: -1; RecA intein inh: -4.4

What do the screens show for `O=C(C1CCCN(c2nnc(-n3cccc3)s2)C1)N1CCC2(CC1)OCCO2` (stereo not given)?
Mtb betalactam: -16; YopH PTP inh: 9; RecA intein inh: -0.2; Mtb H37Rv: -1%; Arbovirus inh: 4

What do the screens show for `CCOC(=O)c1ccc(NC(=O)CN2C(=O)CSCC2=O)cc1`?
Mtb betalactam: 0; YopH PTP inh: -17; RecA intein inh: 2.2; Mtb H37Rv: -3%; Arbovirus inh: -6

What do the screens show for `CCOC(=O)c1c(S(=O)(=O)NCC(=O)Nc2cc(C)ccn2)c(C)n(C)c1C`?
Mtb betalactam: 1; RecA intein inh: 0.7

Results for S=c1[nH]cc(-c2ccc(Cl)cc2)n1-c1ccccc1 ?
Mtb betalactam: -1; YopH PTP inh: -12; RecA intein inh: 6.6; Mtb H37Rv: -5%; Arbovirus inh: -9

Results for c1coc(C2OCC3(CO2)COC(c2ccco2)OC3)c1 (stereo not given) ?
Mtb betalactam: 0; RecA intein inh: -1.9; Mtb H37Rv: -2%

How did O=C(NCc1ccc2c(c1)OCO2)c1c(O)nc2sccn2c1=O do in these assays?
Mtb betalactam: 67; RecA intein inh: -2.2

What do the screens show for `Cc1c(C(C)(C)C)s/c(=N/S(=O)(=O)c2ccccc2)n1C`?
Mtb betalactam: 0; RecA intein inh: 4.0

Results for COCc1[nH]nc2c1C1(C(=O)N(C)c3ccccc31)C(C#N)=C(N)O2 (stereo not given) ?
Mtb betalactam: 1; YopH PTP inh: -54; RecA intein inh: 1.3; Mtb H37Rv: -11%; Arbovirus inh: 0

What do the screens show for `COc1cc(/C=C2\C(=N)N3N=C(S(C)(=O)=O)SC3=NC2=O)ccc1OCCOc1ccccc1C`?
Mtb betalactam: 0; RecA intein inh: 13

What do the screens show for `Cc1ccc(C(=O)CSc2n[nH]c(-c3ccco3)n2)cc1C`?
Mtb betalactam: -11; YopH PTP inh: -170; RecA intein inh: -0.3; Mtb H37Rv: -2%; Arbovirus inh: 3; Arbovirus inh repeat: 8

What do the screens show for `O=C(c1ccc2nc(N3CCOCC3)sc2c1)N1CCCC1`?
Mtb betalactam: 1; YopH PTP inh: -26; RecA intein inh: -0.9; Mtb H37Rv: 2%; Arbovirus inh: 0; Arbovirus inh repeat: 3

Results for CCCCN(C)C(=O)C1CCCN(S(=O)(=O)c2ccc3c(c2)oc(=O)n3C)C1 (stereo not given) ?
Mtb betalactam: -8; RecA intein inh: -18

How did COc1ccc(/C=N/n2c(SC)nnc2-c2ccccc2)cc1C do in these assays?
Mtb betalactam: -18; YopH PTP inh: 10; RecA intein inh: -1.6; Mtb H37Rv: 9%; Arbovirus inh: -24

What do the screens show for `O=S(=O)(Nc1ccncc1)c1cc(Cl)ccc1Cl`?
Mtb betalactam: -5; RecA intein inh: -3.1

How did Cc1cccc(OCC(=O)OC(C)CN2CCCCC2)c1 (stereo not given) do in these assays?
Mtb betalactam: 5; RecA intein inh: 0.2

How did CNC(=S)N1CCc2ccccc2C1 do in these assays?
Mtb betalactam: 3; YopH PTP inh: -16; RecA intein inh: 1.6; Mtb H37Rv: 3%; Arbovirus inh: -6

How did Cc1ccc(-n2ncc3c2CCCC3NC(=O)CCCN2CCCCC2=O)cc1C (stereo not given) do in these assays?
Mtb betalactam: 1; RecA intein inh: 0.4

What do the screens show for `Cc1ccc(-c2noc(CN3CCC(C(N)=O)CC3)n2)cc1`?
Mtb betalactam: 0; YopH PTP inh: -30; RecA intein inh: -1.7; Arbovirus inh: 6

Results for CCCC(=O)Nc1cc(C)c(NC(=O)c2ccco2)cn1 ?
Mtb betalactam: 2; RecA intein inh: -1.8

Results for O=S(=O)(NN=C1CCCCCC1)c1ccc(Cl)cc1 ?
Mtb betalactam: -6; RecA intein inh: -2.5

Results for CC(C)(C)OC(=O)N1CCC(NC(=O)c2nc[nH]c2C(=O)NCC(=O)OCc2ccccc2)CC1 ?
Mtb betalactam: -8; RecA intein inh: -0.3

What do the screens show for `C=CCn1c(SCc2c(C)noc2C)nc2sc3c(c2c1=O)CCC(C)C3` (stereo not given)?
Mtb betalactam: -9; YopH PTP inh: -6; RecA intein inh: 4.0; Mtb H37Rv: 9%; Arbovirus inh: -10

What do the screens show for `Cc1cc(C(=O)N(CCC#N)Cc2cccs2)no1`?
Mtb betalactam: -2; RecA intein inh: 0.4; Mtb H37Rv: -7%

What do the screens show for `CC(=O)CSc1nnc(Cc2ccc([N+](=O)[O-])cc2)o1`?
Mtb betalactam: 3; YopH PTP inh: -13; RecA intein inh: -4.1; Mtb H37Rv: -5%; Arbovirus inh: 6

How did COc1cccc(NC(=O)CN(C)S(=O)(=O)c2ccc3[nH]c(=O)oc3c2)c1 do in these assays?
Mtb betalactam: -8; RecA intein inh: -4.3

Results for COc1ccc(NC(=O)CCNS(=O)(=O)c2ccccc2F)cc1S(N)(=O)=O ?
Mtb betalactam: -3; RecA intein inh: -0.7

Results for Cn1c(/C=C/c2cccc([N+](=O)[O-])c2)nc2ccccc2c1=O ?
Mtb betalactam: 10; RecA intein inh: 4.8; Mtb H37Rv: -7%; Arbovirus inh: -4

Results for Cn1nnnc1SCc1nnc(-c2ccccc2Br)o1 ?
Mtb betalactam: -6; YopH PTP inh: -42; RecA intein inh: -2.4; Mtb H37Rv: 0%; Arbovirus inh: 1

How did OCCC1CN(C2CCN(c3ccccc3)CC2)CCN1Cc1ccc(F)c(F)c1 (stereo not given) do in these assays?
Mtb betalactam: -4; RecA intein inh: -0.6; Mtb H37Rv: -4%; Arbovirus inh: -13

What do the screens show for `COC(=O)/C(C#N)=C/c1c(N2CCN(c3ccc(OC)cc3)CC2)nc2c(C)cccn2c1=O`?
Mtb betalactam: 16; RecA intein inh: -0.5

How did Oc1cc(-c2ccccc2)c2ccccc2c1 do in these assays?
Mtb betalactam: 57; YopH PTP inh: -7; RecA intein inh: 1.2; Mtb H37Rv: 27µM*; Arbovirus inh: -39

How did C=CCNc1cnn(CC(C)=O)c(=O)c1Br do in these assays?
Mtb betalactam: -7; YopH PTP inh: -47; RecA intein inh: 0.0; Mtb H37Rv: -10%; Arbovirus inh: 0

How did CCC(=NCC1CCCO1)c1c(O)n(-c2ccc(Cl)cc2)c(=O)[nH]c1=O (stereo not given) do in these assays?
Mtb betalactam: 3; YopH PTP inh: -36; RecA intein inh: -1.1; Mtb H37Rv: 1%; Arbovirus inh: 1

Results for Cc1ccc(-n2cc(C(=O)c3ccc(N4CCN(C)CC4)cc3)nn2)cc1Cl ?
Mtb betalactam: 98; RecA intein inh: -1.9; Mtb H37Rv: <0.39µM*; Arbovirus inh: -23

Results for CCN(CC)c1ccc(C(=O)OCC(=O)N2CCCC2)cc1 ?
Mtb betalactam: 6; RecA intein inh: 1.1

How did Cc1[nH]c2ccccc2c1C1(O)C(=O)N(Cc2ccc3c(c2)OCO3)c2ccccc21 (stereo not given) do in these assays?
Mtb betalactam: 3; YopH PTP inh: -24; RecA intein inh: 4.8; Arbovirus inh: -10

Sorted by formula weight (rising): some entries from above.
How did Oc1cc(-c2ccccc2)c2ccccc2c1 do in these assays?
Mtb betalactam: 57; YopH PTP inh: -7; RecA intein inh: 1.2; Mtb H37Rv: 27µM*; Arbovirus inh: -39

How did C=CCNc1cnn(CC(C)=O)c(=O)c1Br do in these assays?
Mtb betalactam: -7; YopH PTP inh: -47; RecA intein inh: 0.0; Mtb H37Rv: -10%; Arbovirus inh: 0

Results for Cn1c(/C=C/c2cccc([N+](=O)[O-])c2)nc2ccccc2c1=O ?
Mtb betalactam: 10; RecA intein inh: 4.8; Mtb H37Rv: -7%; Arbovirus inh: -4

How did CCC(=NCC1CCCO1)c1c(O)n(-c2ccc(Cl)cc2)c(=O)[nH]c1=O (stereo not given) do in these assays?
Mtb betalactam: 3; YopH PTP inh: -36; RecA intein inh: -1.1; Mtb H37Rv: 1%; Arbovirus inh: 1

Results for Cc1ccc(-n2cc(C(=O)c3ccc(N4CCN(C)CC4)cc3)nn2)cc1Cl ?
Mtb betalactam: 98; RecA intein inh: -1.9; Mtb H37Rv: <0.39µM*; Arbovirus inh: -23

How did Cc1[nH]c2ccccc2c1C1(O)C(=O)N(Cc2ccc3c(c2)OCO3)c2ccccc21 (stereo not given) do in these assays?
Mtb betalactam: 3; YopH PTP inh: -24; RecA intein inh: 4.8; Arbovirus inh: -10

How did OCCC1CN(C2CCN(c3ccccc3)CC2)CCN1Cc1ccc(F)c(F)c1 (stereo not given) do in these assays?
Mtb betalactam: -4; RecA intein inh: -0.6; Mtb H37Rv: -4%; Arbovirus inh: -13

The listing continues:
How did COc1ccccc1NC(=O)CN1CCC(c2nc3ccc(C)cc3[nH]2)CC1 do in these assays?
Mtb betalactam: -6; RecA intein inh: 3.0; Mtb H37Rv: 6%; Arbovirus inh: -3

Results for COC(=O)c1ccc(NC(=S)N2CCN(C)CC2)cc1 ?
Mtb betalactam: 0; RecA intein inh: 3.3; Mtb H37Rv: -4%; Arbovirus inh: 5

What do the screens show for `CCN(CC)P(=O)(Nc1ccc(C)cc1Br)c1ccc(N(C)C)cc1NC(=O)c1ccco1` (stereo not given)?
Mtb betalactam: -1; RecA intein inh: 3.6; Mtb H37Rv: -4%; Arbovirus inh: -22

How did CC1CCN(CCc2nc3cc(NS(=O)(=O)c4ccccc4)ccc3n2C)CC1 do in these assays?
Mtb betalactam: -3; YopH PTP inh: -53; RecA intein inh: -0.1; Mtb H37Rv: -2%; Arbovirus inh: 4

Results for CCC(=O)NC(=S)Nc1cccc(Cl)c1N1CCCCC1 ?
Mtb betalactam: 11; YopH PTP inh: -25; RecA intein inh: -0.5; Mtb H37Rv: 16%; Arbovirus inh: -9

Results for Cc1ccc(-n2ccnc2SCC(=O)O)cc1C ?
Mtb betalactam: -4; RecA intein inh: 1.0; Mtb H37Rv: -6%

How did COc1ccc2oc(=O)c(C(=O)N3CCN(c4ccccc4C)CC3)cc2c1 do in these assays?
Mtb betalactam: -4; YopH PTP inh: 21; RecA intein inh: -3.4; Mtb H37Rv: -3%; Arbovirus inh: 4

How did CCOC(=O)C1(CC2CCCCO2)CCN(Cc2nc(C(C)C)cs2)CC1 (stereo not given) do in these assays?
Mtb betalactam: 3; Mtb H37Rv: 0%; Arbovirus inh: 8

Bioassay records deposited in PubChem by several laboratories.

These rows are one share of the data; count on the stated rates, not on these rows.
